# Screens deposited in PubChem by ICCB-Longwood Screening Facility, Harvard Medical School.
# Ba CapD inh = inhibitors of Bacillus anthracis CapD enzyme. hit rate 0.23% among 140,000. purified CapD enzyme, fluorescence intensity read-out; stronger effect = lower value; some hits fall short of the stated cut. z-score (test concentration not listed). AID 492967;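 active = z-score under -4 in either of two replicates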;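 also: stock transfer was 100 nL into about 40 µL; score is relative to mean and spread of the plate; one replicate is shown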
# AID504770 = E. coli YBA685 growth inhibition, screen for V. cholerae RctB inhibitors; E. coli YBA685 rctB-dependent plasmid, OD600 growth, 3 h; stronger effect = lower value; z-score (no concentration beside the values); AID 504770; hit rate 0.27% among 130,000;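 active = z-score under -2 on both plates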;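 also: wells of about 30 µL received 100 nL stock; score is relative to mean and SD of the test wells; the first replicate is given; strong numbers were not always called active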
# An asterisk follows results filed as active; i = inactive; nt = not tested or not shown; & = joins results of further samples.
# Results follow in this order: Ba CapD inh, AID504770
O=C(O)c1ccccc1-c1ccc(-c2cc(C(=O)O)c3cc(F)ccc3n2)o1
    -0.85, -2.7*
CCOC(=O)C1=CN(Cc2ccc(F)cc2)C=C(C(=O)OCC)C1c1cc(OCC)c(O)c([N+](=O)[O-])c1
    -0.205, nt
CC(C)NC(=O)Cn1cc2c(n1)CCCC2
    0.78, -0.8
O=C(Nc1ccc(Cl)cc1Cl)C1=Cc2cc(Cl)ccc2OC1
    0.45, nt
Clc1ccc(Cn2c(CN3CCCC3)nc3ccccc32)cc1
    -0.805, nt
Clc1ccc(/C=N/n2cnnc2)cc1
    0.32, -0.45
CCC(=O)Nc1nnc(SCC(=O)N2CCCc3ccccc32)s1
    nt, 1.85
C/C(N)=C(/C#N)C(=O)CN1C(=O)NC(C)(c2ccc3c(c2)OCO3)C1=O (stereo not given)
    nt, -1
O=C(O)c1cc2c([nH]c1=O)CCC2
    nt, 0.05
C=CCN(CC=C)S(=O)(=O)c1cc(Cl)ccc1Cl
    0.17, -0.55
COC(=O)c1cc2c(ccn2-c2ccc(F)cc2)n1Cc1ccccc1
    nt, 1.95
COc1ccc2nc(SCC(=O)Nc3ccc(Br)cc3)[nH]c2c1
    -0.255, nt
Cc1ccc(-c2nc(C#N)c(N3CCC(C(N)=O)CC3)o2)cc1
    nt, -0.55
COC(=O)C1=CN(CC2CCCO2)C=C(C(=O)OC)C1c1ccc(OCc2ccccc2)c(OC)c1 (stereo not given)
    6.04, nt
CCC(=O)Nc1ccc2c(c1)nc1n2CCN(Cc2ccccc2)C1
    0.415, 0.6
O=C(O)CN1C(=O)/C(=C\c2cc([N+](=O)[O-])cc(Br)c2O)SC1=S
    -7.91*, nt
COC(=O)c1sc(C)cc1OC(=O)c1ccc(OC)cc1
    nt, -0.2
O=C(OC1CSc2nc3ccccc3n2C1)c1ccccc1Cl (stereo not given)
    nt, 1.95
CC(C)(C)/C=N/NS(=O)(=O)c1ccc(Cl)s1
    0.14, 0.9
C/C=C/C(=O)Nc1ccc(OC)cc1
    0.025, -0.9
O=C(O)CSc1n[nH]c(-c2ccc(Cl)cc2)n1
    0.93, 0.05
CC(C)(C)c1ccc(C(=O)N2CCC(c3nc(-c4ccc(Cl)cc4)no3)CC2)cc1
    0.11, -0.55
CCCCN(CCCC)CC(O)CN(c1ccccc1OC)S(=O)(=O)c1ccccc1 (stereo not given)
    -0.74, nt
Cc1cccc(-c2nnc(C3CCN(S(=O)(=O)Cc4ccccc4)CC3)o2)c1
    -0.51, -0.5
Cc1ccc(C)c(Nc2cn[nH]c(=O)c2Cl)c1
    nt, -0.35
Cc1[nH]n(-c2ccccc2)c(=S)c1C=NC(C)Cc1ccccc1 (stereo not given)
    -0.095, -0.35
CCOc1ccc(S(=O)(=O)N/N=C2/C=C(C)CC2)cc1
    nt, 0.65
CCC(Sc1nc2ccccc2c(=O)n1CCCC(=O)NCc1ccco1)C(=O)Nc1ccc2c(c1)OCO2 (stereo not given)
    -0.04, nt
Cc1cc(=O)cc(C)n1-c1ccc(Cl)cc1Cl
    -0.215, -0.8
O=C(c1ccccc1)N1CCn2c3c(c4cc(C5CCCCC5)ccc42)CCCC31 (stereo not given)
    -0.61, nt
COc1cc(C(=O)Nc2cccc(-c3nnc(-c4ccco4)o3)c2)ccc1OC(C)=O
    -0.585, -0.4
Cc1ccc(-c2cn3nc(C(C)C)sc3n2)cc1C
    -0.745, 0.2
CC(=O)/C(N=Nc1ccc(Br)c(Cl)c1)=C(\C)O
    -1.23, nt
CC(NC(=O)c1ccc(S(=O)(=O)N2CCCCC2)cc1)C(c1ccccc1)N1CCOCC1 (stereo not given)
    nt, -0.4
Nc1c(Br)cc(Br)cc1CNC1CCC(O)CC1 (stereo not given)
    0.98&-0.01, 0.45
O=S(=O)(NC1CCN(Cc2ccccc2)CC1)c1ccc(I)cc1
    -0.635, -0.8
NC(=O)N/N=C/c1ccc(-c2ccc(SC(F)F)cc2)o1
    nt, -1
Cc1c2cnn(-c3ccccc3)c(=O)c2c(C)n1CCCC(=O)NCCC1=CCCCC1
    0.04, -0.55
Oc1ccc2ccccc2c1C=Nc1c(F)c(F)c(F)c(F)c1F
    0.235, 0.1
N#CC(c1ccccn1)c1nc(=O)c2ccccc2s1 (stereo not given)
    0.475, -0.15
CCOC(=O)c1ccc(N=Cc2ccc(OC(=O)c3ccco3)cc2)cc1
    0.275, -1.6
Cn1c(=O)c2c(nc(NCc3ccc4c(c3)OCO4)n2Cc2ccc(Cl)cc2)n(C)c1=O
    0.27, nt
N#Cc1cc2c(nc1SC1CC(=O)N(c3ccc(Br)cc3)C1=O)CCC2 (stereo not given)
    0.47, nt
O=C(CCN1CCCCC1)N/N=C/c1ccccc1OC(F)F
    nt, 1.9
O=C(CN1CCN(c2ccc(O)cc2)CC1)NC1CCCc2ccccc21 (stereo not given)
    nt, 0.9
Cc1nn(-c2ccccc2)c(C)c1-c1nc(-c2ccccc2)no1
    -0.53, -1.95
CCN1c2ccccc2NC2N=C(OC)C(c3ccccc3)C21 (stereo not given)
    0.67, 0.1
COC(=O)c1cccc(NS(=O)(=O)c2ccc(Cl)c(Cl)c2)c1
    -0.535, nt
CC1CCC(C)(C)CN(c2ccc(C(F)(F)F)cc2[N+](=O)[O-])C1 (stereo not given)
    0.56, nt
NC(=O)c1cnc(C(F)(F)F)cc1C(F)(F)F
    -0.67, -0.4
CC1Cc2ccccc2N1C(=O)c1ccc2c(c1)OCO2 (stereo not given)
    -0.225, -0.7
Cc1ccn2cc(C(=O)OCCOc3ccccc3Cl)nc2c1
    nt, 0.8
CC(C)c1n[nH]c(=S)n1N
    nt, -0.15
O=C(Cn1cnc2c(oc3ccccc32)c1=O)N1CCCc2ccccc21
    0.53, -0.35
CCCCNC(=O)c1cn(CC(C)C)c(=O)c2cc(OC)c(OC)cc12
    1.51, 1.75
O=C1CC(c2ccccc2)Oc2cc(Cl)ccc21 (stereo not given)
    -0.455, -0.3
CCOC(=O)C1=C(O)/C(=C/c2ccc(C)o2)SC1=NC(=O)c1ccccc1
    -0.13, 0.65
CCCCCc1ccc(-c2ccc(C#N)cc2)nc1
    0.795, 0.65
CN(C)c1ccc(C(Nc2nccs2)c2ccc3cccnc3c2O)cc1 (stereo not given)
    i, 0.45
COc1cc2c(cc1OC)CN(c1ccc3ccccc3n1)CC2
    nt, -0.15

# More entries follow.
# Results follow in this order: Ba CapD inh, AID504770
CCOC(=O)CSc1nc(NC#N)nc(N(CC)CC)n1
    -0.295, -1.1
CCOC(=O)c1c(C)nn(-c2ncccc2NC(=O)NC(C)C)c1C
    0.97, -0.75
O=c1c2ccccc2ncn1CN1CCN(Cc2ccccc2)CC1
    nt, -0.35
CC(C)(C)NCC(O)COc1cccc2c1CCC(=O)N2 (stereo not given)
    -0.1, nt
O=C(O)CCN1C(=O)c2cc(Cl)c(Cl)cc2C1=O
    -0.105, -0.65
C#CCSc1nc(=O)n2ccccc2n1
    nt, -1.1
O=C1Cc2ccccc2C(c2ccccc2)N1 (stereo not given)
    0.275, nt
COc1ccc(CNC(=O)c2cn(C)c(=O)c3ccccc23)cc1
    16.6, 0.55
CCCc1nc(NC(C)=O)c(C#N)c(-c2ccccc2OC)c1CC
    2.48, 1.3
COC(=O)CNc1cc(C)c(C(O)(C(F)(F)F)C(F)(F)F)cc1OC
    0.065, -1
Fc1cccc(Cl)c1CSc1nnc(-n2cccc2)s1
    0.07, -0.3
Cc1cc(=O)[nH]c(SC(C(=O)O)c2ccccc2)n1 (stereo not given)
    -0.47&-0.495, -0.05&-0.05
Cc1cc(/C=C/C(=O)N2CCCC2c2cccs2)c(C)n1Cc1ccco1 (stereo not given)
    nt, 0.1
O=C(C1CCN(c2nccc(C(F)(F)F)n2)CC1)N1CCSCC1
    0.01, -0.25
COc1ccc(C2(C(=O)NCc3nnc(SC)n3C(C)C)CC2)cc1
    nt, -1.35

# Entries listed so far that have bromine (5):
# Results follow in this order: Ba CapD inh, AID504770
COc1ccc2nc(SCC(=O)Nc3ccc(Br)cc3)[nH]c2c1
    -0.255, nt
O=C(O)CN1C(=O)/C(=C\c2cc([N+](=O)[O-])cc(Br)c2O)SC1=S
    -7.91*, nt
CC(=O)/C(N=Nc1ccc(Br)c(Cl)c1)=C(\C)O
    -1.23, nt
Nc1c(Br)cc(Br)cc1CNC1CCC(O)CC1 (stereo not given)
    0.98&-0.01, 0.45
N#Cc1cc2c(nc1SC1CC(=O)N(c3ccc(Br)cc3)C1=O)CCC2 (stereo not given)
    0.47, nt

# (cont.)
# Results follow in this order: Ba CapD inh, AID504770
COc1ccc(N/C=C/C(=O)c2sc(-c3ccccc3)nc2C)cc1
    0.475, nt
Cc1cc2c(N3CCC(C(=O)O)CC3)ncnc2s1
    3.63, -0.5
COCCn1c(O)c(/C=N/Nc2nnc(C)c(=O)[nH]2)c(=O)[nH]c1=S
    nt, -0.15
CC1=NN(c2ccccc2)C(=O)/C1=C\c1ccc(N)cc1
    -2.65, 0.15
COC(=O)c1ccsc1NC(=O)CCOc1ccccc1
    -0.74, 0.55
N#Cc1cccc(OCC(=O)NC(=O)NCc2ccccc2)c1
    nt, 0.1
COC(=O)c1c(C)oc(C)c1S(=O)(=O)Nc1ccccc1
    -0.855, -0.2
NC[C@H]1O[C@H](O[C@H]2[C@H](O)[C@@H](O[C@H]3O[C@H](CO)[C@@H](O)[C@H](N)[C@H]3O)[C@H](N)C[C@@H]2N)[C@H](O)[C@@H](O)[C@@H]1O
    0.865, nt
CCOc1ccc(CC(=O)C2C(=O)CCCC2=O)cc1OCC
    0.14, 0.05
C=CCc1cccc(C=Nc2cccn3cc(-c4ccccc4)nc23)c1O
    -1.09, -1.05
Clc1ccccc1CNCc1ccccc1
    -0.12, -0.6
O=C(CC(SCc1ccco1)c1ccc(OC(F)F)cc1)c1ccco1 (stereo not given)
    nt, 0.45
CC1CN=C(c2ccccc2)c2ccccc2C(=O)O1 (stereo not given)
    -0.08, nt
CSc1ccc2nnc(-c3cccnc3)n2n1
    nt, 2.7
COCCCn1cc(C(=O)c2cc(F)ccc2O)cc(C#N)c1=O
    nt, -0.5
CCOC(=O)c1nc2cc3n(c(CC(C)C)c-2c1C)C(C)C(C)=C3C (stereo not given)
    -0.19, nt
CC(C)C(=O)NS(=O)(=O)c1ccc(NS(C)(=O)=O)cc1
    0.535, 0.55
O=C(O)c1cc2ccccc2nc1Cl
    nt, -0.4
COc1cc(C2C(C#N)=C(N)Oc3n[nH]c(-c4ccc(C)cc4)c32)cc(OC)c1OC (stereo not given)
    -0.855, nt
CN(C)C(=O)c1cc(N(C)C)nc(N(C)C)n1
    -0.29, nt
CN=C(c1ccc(C)cc1)n1c(=S)nc(-c2ccc(C)cc2)n(C)c1=S
    3.42, 0.1
CC(C)OCCCNc1ncnc2c1c(-c1ccccc1)cn2-c1ccc(Br)cc1
    0.355, nt
O=C(NCc1ccccn1)c1cc(-c2ccc(Br)cc2)nc2ccccc12
    0.685, nt
Cc1[nH]c(=O)[nH]c(=O)c1S(=O)(=O)N(C)Cc1ccccc1
    -0.965, 2.15
COc1cccc(-c2nnc(SCCOc3ccccc3)n2C)c1
    nt, 0.75
CC(Sc1ccccc1)C(=O)NCc1ccco1 (stereo not given)
    0.93, 1.5
COc1cc(/C=N/NC(=O)CSc2nc(C)cc(C)n2)ccc1O
    0.065, -0.45
O=C1CC(c2ccccc2F)c2cc3c(cc2N1)CCC3 (stereo not given)
    0.305, 1.3
NNC(=O)c1ccc(CSc2ccc(C(F)(F)F)cn2)o1
    0.535, 0.25
CCOC(=O)c1ccc2nc(C(F)(F)F)nc(Cl)c2c1
    20.5, 0
COCC(=O)Nc1ccc2c(c1)OCC(=O)N2Cc1ccc(C)cc1
    nt, -0.05
CCCc1[nH]nc2c1C1(C(=O)N(CC(=O)O)c3ccccc31)C(C#N)=C(N)O2 (stereo not given)
    -0.13, nt
COc1ccc2c(c1)CCCN2Cc1c[nH]c2ccccc12
    6.22, -0.45
Nc1c(-c2ccc3c(c2)OCCO3)oc2ccccc2c1=O
    nt, 0
Cc1cc2ncn(CCC(=O)NC(C)(C)C)c2cc1C
    nt, -0.55
O=C1C(=Cc2cccn2-c2ccc(O)cc2)C(=O)c2ccccc21
    -0.285, 0.3
CCN(CC)C(=O)Cn1cc(SCC(N)=O)c2ccccc21
    -0.005, -0.95
CC(NC(=O)Nc1ccccc1)C(c1cccs1)N1CCCC1 (stereo not given)
    nt, 0.45
CCOc1ccc2c(c1)[N+](C)(C)C(C)(C)C=C2C
    0.835, -0.05
Cc1ccc(C(=O)N/N=C/c2ccccc2)cc1
    -0.11, -0.5
O=S(=O)(c1cccs1)N(c1ccccc1)C(F)F
    nt, 0.6
CCC(=O)Nc1ccccc1N1CCN(C)CC1
    -0.01, -1.2
O=c1[nH]c(=O)n(-c2ccccc2F)c(O)c1C=NCCC1=CCCCC1
    -0.995, -0.2
N#C/C(=C\c1ccc2c(c1)OCO2)C(=O)OCCN1CCCC1=O
    nt, 1.1
O=c1cc(CO)oc(CN2CCCC2)c1O
    -0.235, 0.35
COc1ccc(N=Cc2ccc(SC)cc2)cc1N
    -0.36, 2.1
FC(F)(F)c1cnc(-c2ncc3c(Cl)cc(C(F)(F)F)cn23)c(Cl)c1
    74.3, nt
CN(C)S(=O)(=O)c1ccc(C(=O)OCCN2C(=O)c3cccc4c(N5CCOCC5)ccc(c34)C2=O)cc1
    0.665, nt
CN(c1ccccc1C(=O)NCc1ccco1)S(C)(=O)=O
    nt, 0.35
CCN1CCn2c3c(c4cc(C)ccc42)CCCC31 (stereo not given)
    0.675, 0.35
O=c1c(=Nc2ccccc2O)c(=O)c2ccccc12
    -0.215, -0.9
